# Choline anaer gr – inhibitors of anaerobic choline-dependent gram-negative bacterial growth | Gram-negative bacterium anaerobic choline minimal medium, absorbance growth; hits give low values; many inactives read as strong as hits in the columns shown | calls only | hit rate 0.2% among 55,000;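 active = growth z-score on choline under -2 at 7 or 20 h with little or no fall on glycerol, limits in tiers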;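 also: stock transfer was 300 nL into about 50 µL; the organism is E. coli; final concentration not given here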
# Choline anaer gr early – second read-out of Choline anaer gr, no call of its own (marks repeat the call); z-score; measured here: choline growth z-score, timepoint 1;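 score of optical density at 7 h as mean of two plates; lower means less growth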
# * hit, by the source's call; i = inactive; & = joins results of further samples. Only part of the results is shown; the hit share may differ from the screen's.
SMILES,Choline anaer gr,Choline anaer gr early
CCc1nc(-c2cc(S(=O)(=O)N3CCN(c4ccc(F)cc4)CC3)c(C)s2)cs1,i,-1.7
O=C(Cn1nc2c(N3CCSCC3)nccn2c1=O)NC1CCCC1,i,-0.17
O=C(CN1CCN(Cc2ccc(F)cc2Cl)S1(=O)=O)NCc1ccccc1Cl,i,0.97
O=C(NCc1ccc(Br)cc1)c1ccc(Nc2ccnc(-c3ccc(F)cc3)n2)cc1,i,-0.21
CC(C)n1cnc(S(=O)(=O)N2CCC(C(=O)Nc3ccc(S(N)(=O)=O)cc3)CC2)c1,i,-0.83
CCN1CCN(c2ncc(N3CCC(C(=O)N4CCC5(CC4)OCCO5)CC3)cn2)CC1,i,-0.76
O=S1(=O)NC(c2ccccc2O)Nc2ccccc21 (stereo unspecified),i,-0.02
COCCN1CCc2nc(SCc3ccc(Cl)cc3)[nH]c(=O)c2C1,i,0.21
CC1Cc2ccccc2N1C(=O)CSc1nc2ccc(NC(=O)C3CCCCC3)cc2s1 (stereo unspecified),i,0.27
O=C(Nc1ccc(Cl)cc1)C1CCCN1S(=O)(=O)c1cccc2nsnc12 (stereo unspecified),i,-0.73
CCCC(=O)NCCc1csc(-c2cccc(F)c2)n1,i,-0.75
Cc1nn(-c2nc3ccccc3o2)c2c1C(c1cc(Br)ccc1F)CC(=O)N2 (stereo unspecified),i,0.23
CCCCOc1ccc(C(=O)NCCc2sc(-c3ccc(F)cc3)nc2C)cc1,i,1.6
COc1cccc(-c2cc(C(=O)N3CCCC3c3ccc(Cl)cc3)on2)c1 (stereo unspecified),i,0.45
CC1(C(=O)NCc2ccc(F)cc2)CCCN(C(=O)Nc2ccc3c(c2)OCCO3)C1 (stereo unspecified),i,-0.8
CCOC(=O)C1CCCN(S(=O)(=O)c2cc(-c3ccc(=O)[nH]n3)ccc2Cl)C1 (stereo unspecified),i,-0.17
O=C(NCCCN1CCCC1)c1csc2c1CCCC2,i,-0.18
Cc1cc(C)cc(NC(=O)c2cc3c([nH]c2=O)CCCC3=O)c1,i,0.38
COc1ccc(CNC(=O)C2CCCN2S(=O)(=O)c2cc3c(cc2C)NC(=O)CO3)cc1 (stereo unspecified),i,-1.2
COc1ccc(C2c3c(-c4ccc(Cl)cc4)n[nH]c3C(=O)N2c2ccccc2)cc1 (stereo unspecified),i,0.33
COc1ccc(NC(=NCc2ccncc2)NC(=O)c2cccc(N(C)C)c2)cc1OC,i,-0.16
Cc1cc(I)ccc1Nc1c(C(=O)NOCC2CC2)cc(F)c(F)c1F,i,0.71
O=c1nc(SCc2ccccc2F)c2c(n1CC1CCCO1)CCC2 (stereo unspecified),i,0.12
CC1(C)C(=O)N(CC(=O)Nc2ccc(F)cc2)c2ccccc21,i,-1.7
CC(=O)N1CCc2cc(-c3ccc(C(=O)NCCc4c[nH]c5ccc(C)cc45)cc3)ccc21,i,-0.3
O=C(CCCn1nc(-c2ccccc2)c2cc(Cl)ccc21)NCc1ccccc1,i,-0.08
CCc1nnc(NC(=O)CSc2ccc3nnc(-c4ccccc4)n3n2)s1,i,0.44
C[N+](C)(C)CCCCCNCC12CC3CC(CC(C3)C1)C2,i,-0.7
COc1cccc(NC(=O)Nc2ccc3c(c2)CN(Cc2ccccc2)C3)c1,i,-0.61
Cc1ccc(C(CNC(=O)c2cc(-c3ccc(Br)cc3)on2)N(C)C)cc1 (stereo unspecified),i,-0.71
Cc1nc(-c2ccc(C)c(S(=O)(=O)N3CCCC(C(=O)NC4CCCC4)C3)c2)no1 (stereo unspecified),i,-0.06
COc1ccccc1O,i,0.12&0.54
CC(C)NC(=O)N1CCCC(c2cccc(C(=O)NCc3ccc4c(c3)OCO4)c2)C1 (stereo unspecified),i,0.82
CCn1c(CN(c2ccc(F)cc2)S(C)(=O)=O)nnc1SCC(=O)NC1CCCCC1C (stereo unspecified),i,1.5
O=C(NCC1CCCO1)N1CCCn2nc(-c3ccncc3)cc2C1 (stereo unspecified),i,0.54
CN(C)S(=O)(=O)c1cc2c(cc1N1CCC(Cc3ccccc3)CC1)Oc1ccccc1NC2=O,i,0.5
CCOC(=O)c1c(NC(C)=O)c2c3c(sc2n1CC(=O)Nc1cc(OC)ccc1OC)CCCC3,i,-0.28
CCCc1cc(C2CCCN2Cc2cn[nH]c2-c2ccc(F)cc2)no1 (stereo unspecified),i,0.77
CCc1ccc(N2CCC(C(=O)NC3CC3)C2=O)cc1 (stereo unspecified),i,0.84
Cc1noc(C)c1C(=O)N1CCCC1c1ccccc1F (stereo unspecified),i,0.03
CC(C)Cc1ccc(S(=O)(=O)Cc2nc(-c3ccccc3)no2)cc1,i,0.42
Cc1ccccc1Cn1ccn(-c2ccccc2)c(=O)c1=O,i,-0.89
Fc1ccc(-c2noc(-c3ccc(NCC4CCCO4)nc3)n2)cc1 (stereo unspecified),i,2.1
Fc1cc(F)cc(CN2CCCC2c2ccc(Cl)cc2)c1 (stereo unspecified),i,-0.37
CCC(=O)NCc1nc2ccccc2n1Cc1c(F)cccc1Cl,i,0.54

# An excerpt of these results, with values under each structure.
# Order of values: Choline anaer gr, Choline anaer gr early
O=C(CCCn1nc(-c2ccccc2)c2cc(Cl)ccc21)NCc1ccccc1
    i, -0.08
CCc1nnc(NC(=O)CSc2ccc3nnc(-c4ccccc4)n3n2)s1
    i, 0.44
C[N+](C)(C)CCCCCNCC12CC3CC(CC(C3)C1)C2
    i, -0.7
COc1cccc(NC(=O)Nc2ccc3c(c2)CN(Cc2ccccc2)C3)c1
    i, -0.61
Cc1ccc(C(CNC(=O)c2cc(-c3ccc(Br)cc3)on2)N(C)C)cc1 (stereo unspecified)
    i, -0.71
Cc1nc(-c2ccc(C)c(S(=O)(=O)N3CCCC(C(=O)NC4CCCC4)C3)c2)no1 (stereo unspecified)
    i, -0.06
COc1ccccc1O
    i, 0.12&0.54
CC(C)NC(=O)N1CCCC(c2cccc(C(=O)NCc3ccc4c(c3)OCO4)c2)C1 (stereo unspecified)
    i, 0.82
CCn1c(CN(c2ccc(F)cc2)S(C)(=O)=O)nnc1SCC(=O)NC1CCCCC1C (stereo unspecified)
    i, 1.5
O=C(NCC1CCCO1)N1CCCn2nc(-c3ccncc3)cc2C1 (stereo unspecified)
    i, 0.54
CN(C)S(=O)(=O)c1cc2c(cc1N1CCC(Cc3ccccc3)CC1)Oc1ccccc1NC2=O
    i, 0.5
CCOC(=O)c1c(NC(C)=O)c2c3c(sc2n1CC(=O)Nc1cc(OC)ccc1OC)CCCC3
    i, -0.28
CCCc1cc(C2CCCN2Cc2cn[nH]c2-c2ccc(F)cc2)no1 (stereo unspecified)
    i, 0.77
CCc1ccc(N2CCC(C(=O)NC3CC3)C2=O)cc1 (stereo unspecified)
    i, 0.84
Cc1noc(C)c1C(=O)N1CCCC1c1ccccc1F (stereo unspecified)
    i, 0.03
CC(C)Cc1ccc(S(=O)(=O)Cc2nc(-c3ccccc3)no2)cc1
    i, 0.42
Cc1ccccc1Cn1ccn(-c2ccccc2)c(=O)c1=O
    i, -0.89

# More compounds
SMILES,Choline anaer gr,Choline anaer gr early
Cc1cc2n(n1)CCC(=O)N2C(C)C(=O)Nc1cc(Cl)ccc1C (stereo unspecified),i,-0.25
COc1ccc(CC(=O)Nc2ccc3nc(NS(C)(=O)=O)sc3c2)cc1,i,-0.6
CCc1c(C)sc2c1CCN(CC(=O)Nc1sc(C)cc1C(=O)OC)C2c1ccccc1 (stereo unspecified),i,-1.1
Cc1nc(Nc2ccc(NS(=O)(=O)c3cccc(Cl)c3)cc2)cc(N(C)C)n1,i,-0.12
O=C(NC1CCCCCC1)C1CCN(c2cnc(N3CCCCCC3)nc2)CC1,i,1.4
Cc1ccccc1NC(=O)N1CCN(c2cc(=O)n3nc(-c4ccccc4C)sc3n2)CC1,i,0.7
Cc1cc(F)ccc1S(=O)(=O)N1CCc2cc3cccc(C)c3nc21,i,0.45
COc1ccc(Br)cc1-c1nc(CSc2nc3c(=O)[nH]c(C)nc3n2C)c(C)o1,i,1.5
CCc1ccc2c(c1)-c1ccccc1S(=O)(=O)N2CC(=O)N1CC(=O)Nc2ccccc21,i,0.75
O=C(CCc1ccccc1)N1CCN(Cc2noc(-c3ccccc3)n2)CC1,i,0.24
O=C(CCc1nc(CSc2nc3ccccc3s2)no1)Nc1ccc(F)cc1F,i,-1
CCOc1ccc(-c2csc(Cc3nc(-c4ccc(F)cc4)no3)n2)cc1,i,1.2
CCOc1ccccc1NC(=O)c1ccc(-c2cc(Oc3ccccc3OC)ncn2)cc1,i,1.4
O=c1n(Cc2cc(F)cc(F)c2)nc2c(S(=O)(=O)N3CCOCC3)cccn12,i,-0.02
CC(C)Nc1nc2ncc(N3CCOCC3)nc2s1,i,-0.81
O=c1cc(CN(CCO)CCO)nc2nc(-c3ccccc3)[nH]n12,i,0.61
COC(=O)C1=C(c2ccccc2)c2ccccc2S(=O)(=O)N1CC(=O)Nc1ccc(F)cc1F,i,-0.67
CCOc1ccccc1NC(=O)C(CC)n1nc(-c2ccccc2)c2c(c1=O)CCCC2 (stereo unspecified),i,0.45
CN(C)c1cccc(C(=O)N2CCc3c(c(C(=O)N4CCCC(C(=O)NC5CC5)C4)nn3C)C2)c1 (stereo unspecified),i,-0.06
Cn1c(=O)n(CC(=O)N2CCCC2)c(=O)c2cc(S(=O)(=O)NC3CCCC3)ccc21,i,0.62
Cc1[nH]c(C(=O)N2CCN(c3ccccc3F)CC2)c(C)c1S(=O)(=O)N1CCOCC1,i,-0.91
COc1cccc(NC(=O)c2cccc(Nc3ccc(-c4cccc(C)c4)nn3)c2)c1,i,-0.05
CCOC(=O)CSc1nc2cc(-c3ccccc3)sc2c(=O)n1C,i,-1.1
CC(C)(C)c1csc(-c2csc(S(=O)(=O)NCc3ccc(F)cc3)c2)n1,i,-0.61
COc1ccc(OCC(=O)Nc2cc(C)nn2-c2ncnc3c2cnn3-c2ccc(F)cc2)cc1,i,-0.74
COc1ccc(-c2noc(-c3ccc[nH]c3=O)n2)cc1OC,i,1.2
Cc1nnc2c(=O)n(CC(=O)Nc3ccccc3)c3ccccc3n12,i,-0.47
Cc1cccc(NC(c2ccccn2)c2ccc3cccnc3c2O)n1 (stereo unspecified),i,-0.31
O=C(C1CC(c2ccc(Cl)cc2)=NO1)N1CCCCC1 (stereo unspecified),i,-0.2
C=CCOc1c(OC)cccc1C1CC(=O)Nc2c1c(C)nn2-c1ccc2nncn2n1 (stereo unspecified),i,0.76
O=C(c1cccc(-c2nc(-c3ccccc3)no2)c1)N1CCN(c2ccccc2F)CC1,i,-0.16
CC(C)CNS(=O)(=O)c1ccc(-c2nnc(C3CC3)o2)o1,i,-0.16
CCOC(=O)c1sc2nc(SCC(=O)C(C)(C)C)n(Cc3ccccc3)c(=O)c2c1C,i,0.62
CCOc1ccc(C(=O)Nc2ccc3c(c2)CCCN3C(C)=O)cc1OCC,i,0.13
O=C(CCc1nc(CSc2nc(-c3ccccc3)cs2)no1)Nc1ccccc1F,i,2.3
CCOC(=O)C1CCN(c2cc(NCC(C)C)c3c4c(onc24)-c2ccccc2C3=O)CC1,i,-0.86
COc1ccc(-c2nc(-c3ccc4c(c3)[nH]c(=O)c(=O)n4C)no2)cc1OC,i,-1.8
Cc1ccc(C)c(-c2cc(-c3nc(-c4ccc(Br)cc4)no3)[nH]n2)c1,i,0.57
NC(=O)N/N=C/c1ccc(Oc2ccc(F)cc2)cc1,i,0.61
COc1cccc(-c2noc(CCn3nc(-c4ccc5c(c4)OCO5)ccc3=O)n2)c1OC,i,0.78
Cc1ccc(-n2nc(C)c3nc(CCC(=O)NC4CCCCC4)c(=O)n(C)c32)cc1,i,-0.41
O=C(Nc1ccc(F)cc1F)c1nc(Nc2ccccc2)c2ccccc2n1,i,0.62
COc1cccc(C(=O)N2CCc3c(c(C(=O)NCc4ccccc4)nn3C)C2)c1,i,-0.58
COc1ccccc1C(=O)N1CCC(c2nc3ccccc3o2)CC1,i,0.68
O=C(Nc1ccccn1)c1cc2ccc3cccnc3c2[nH]1,i,0.99
O=C(c1cnn2c(C(F)F)cc(C3CC3)nc12)N1CCCC1c1cccc(F)c1 (stereo unspecified),i,0.49
O=C(Cn1nc2c3sc(N4CCCCC4)nc3ncn2c1=O)Nc1ccc(F)cc1Cl,i,-0.62
C=CCNc1cc(C(C)C)nc2nc(-c3cccnc3)nn12,i,-1.5
O=C(NCc1cccc(Br)c1)c1nc(N2CCCC2)c2oc3ccccc3c2n1,i,1.4
CS(=O)(=O)N1CCCN(Cc2ccccn2)CC1,i,1
CCn1c(=O)n(CC(=O)O)c(=O)c2cnc(-c3ccc(Cl)cc3)nc21,i,-0.51
COc1cccc(N2CCN(S(=O)(=O)c3ccc4c(c3)N(C(C)=O)CCO4)CC2)c1,i,0.26
Cc1cccc(-c2cnc(Nc3cccc(C(=O)NC4CCCC4)c3)nc2)c1,i,1
COc1ccccc1CN1CCN(C2CCN(C(=O)NC3CCCCC3)CC2)C(=O)C1=O,i,-0.13
Cc1ccc(S(=O)(=O)c2cnc(N3CCC(C(N)=O)(N4CCCCC4)CC3)nc2N)cc1C,i,-0.63
Cc1ccc(-n2nc(N3CCN(C(=O)C(C)N4C(=O)COc5ccccc54)CC3)ccc2=O)cc1C (stereo unspecified),i,-0.85
CCCc1cc(C2CCCN2Cc2ccc(OC(C)C)cc2)no1 (stereo unspecified),i,0.23
Cc1ccccc1-c1nn2c(=O)cc(N3CCN(C(=O)Nc4cccc(Cl)c4C)CC3)nc2s1,i,-0.78
CS(=O)(=O)Nc1ccc(C2(C(=O)NCCCN3CCCC3=O)CC2)cc1,i,-0.54
Cn1c(=O)oc2cc(S(=O)(=O)N3CCC(N4CCOCC4)CC3)ccc21,i,-0.94
# Going on with the list.
SMILES,Choline anaer gr,Choline anaer gr early
Cc1cccc(CNC(=O)CCCN2C(=O)c3cccnc3Oc3ccccc32)c1,i,-0.5
Cc1cc2nc(CSc3nc4ccc(NC(=O)Nc5cccc(F)c5)cc4s3)cc(=O)n2o1,i,0.99
c1cn2cnnc2cc1-c1noc(-c2ccc3c(c2)OCO3)n1,i,0.55
CCOC(=O)c1c(-c2ccc(F)cc2)csc1NC(=O)C1=Cc2ccccc2OC=C1,i,-0.85
CCc1ccc(NC(=O)c2sc(-c3cccn3CC)nc2C)cc1,i,1.4
